From PubChem
MITF inh: inhibitors of MITF, primary screen, MITF inhibitor project, cell-based, luminescence; TRPM1 promoter luciferase, 24 h; inhibition, % (no concentration beside the values); 37,000 tested, 0.28% active;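 active = most replicates at 85% or more, or half of them and the mean; inconclusive = half reach 85% but not the mean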;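 note: human melanocyte line stably carrying TRPM1 promoter luciferase reporter; 0% = vehicle wells and 100% = a positive control; the first replicate is given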
YB-1 expr inh: inhibitors of YB-1 gene expression, primary screen, cell-based, fluorescence; U2OS, qRT-PCR YB-1 vs CDIP delta delta Cp, 16 h; stronger effect = higher value; zero = DMSO, each unit about twofold; delta delta Cp (YB-1 minus CDIP) (no concentration beside the values); 30,000 tested, 0.37% active;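 active = delta delta Cp rounded down to an integer at or above 3, about 3 SD of DMSO wells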;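 note: higher means less YB-1 transcript or more CDIP transcript relative to DMSO; stock transfer was 100 nL into about 100 µL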
Shh pathway inh: Hedgehog pathway signaling inhibitors, primary screen, luminescence, Shh-LIGHT2 cells, Gli-luciferase; Shh-LIGHT2 Gli-luciferase reporter, 30 h; inhibition, % (concentration not given with the values); 22,000 tested, 2.1% active; AID 2313, 2010;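 active = replicate mean of 65% or more; inconclusive = mean lower but half the replicates past it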;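 note: pathway switched on by Shh-conditioned medium diluted 1 in 25 in low serum; 100 nL library stock added to about 40 µL; 0% = median of neutral wells and 100% = positive control level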
PD-1 reverse act: activators reversing PD-1 mediated T-cell inhibition, primary screen, luminescence, primary human CD4 T cells, PD-L1 beads; CellTiter-Glo 96 h; activation, % (test concentration not listed); 29,000 tested, under 10 active; AID 2316, 2010;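 active = replicate mean of 50% or more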;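 note: 0% = median vehicle wells and 100% = positive control; 100 nL library stock added to about 50 µL; numbers are from one replicate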
The depositor's hits bear a star; ? = inconclusive; . = no result given.

SMILES	MITF inh	YB-1 expr inh	Shh pathway inh	PD-1 reverse act
COc1ccc(S(=O)(=O)Nc2ccc3c(c2)C(=O)N([C@H](C)CO)C[C@H](C)[C@@H](CN(C)S(=O)(=O)c2ccccc2)OCCCC[C@@H](C)O3)cc1	0.9	-0.453	63.4	.
OC(CCN1CCCC1)(c1ccccc1)C1CCCCC1 (configuration not stated)	-5.3	-0.388	?	-2.3
O=C(CC(C(=O)O)N1CCOCC1)Nc1ccccc1 (configuration not stated)	-11.6	.	.	0.3
C=C1C(=O)O[C@H]2CC(C)C3CC[C@@]4(C)O[C@@]34CC12 (some centres not stated)	.	-0.3	-15.9	.
COc1ccc(CN(C)C[C@@H]2Oc3ccc(NS(=O)(=O)c4ccccc4)cc3C(=O)N([C@@H](C)CO)C[C@H]2C)cc1	-2.5	0.219	5.3	.
Cc1noc(C)c1S(=O)(=O)Nc1ccc2c(c1)C(=O)N([C@@H](C)CO)C[C@H](C)[C@H](CN(C)CC1CCCCC1)O2	-5.4	-0.103	.	-2.9
Cc1cc(C(=O)Nc2cccc3c2O[C@H](CN(C)C(=O)Nc2ccc4c(c2)OCO4)[C@@H](C)CN([C@@H](C)CO)C3=O)n(C)n1	-4.9	0.224	-15.6	1.9
Cc1ccc(S(=O)(=O)N(C)C[C@@H]2Oc3c(cccc3N(C)C)C(=O)N([C@H](C)CO)C[C@@H]2C)cc1	-4.3	-0.723	-22.1	-0.8
COc1ccc(S(=O)(=O)Nc2ccc3c(c2)CC(=O)N([C@H](C)CO)C[C@@H](C)[C@H](CN(C)C(=O)Nc2ccc4c(c2)OCO4)O3)cc1	1.5	0.26	5.0	.
Cc1ccc(S(=O)(=O)N(C)C[C@@H]2Oc3c(NS(=O)(=O)c4ccc(Cl)cc4)cccc3C(=O)N([C@H](C)CO)C[C@H]2C)cc1	-7.5	-0.477	-31.1	0.1
C[C@@H]1CN([C@@H](C)CO)C(=O)c2cc(NC(=O)Cn3cnnn3)ccc2O[C@@H]1CN(C)S(=O)(=O)c1cn(C)cn1	-0.7	-0.342	4.4	1.2
CC(C)NC(=O)Nc1ccc2c(c1)C(=O)N([C@@H](C)CO)C[C@H](C)[C@@H](CN(C)C(=O)NC(C)C)O2	0.7	0.154	.	2.0
CC(C)NC(=O)Nc1ccc2c(c1)CC(=O)N([C@@H](C)CO)C[C@H](C)[C@@H](CN(C)Cc1ccncc1)O2	4.4	-0.467	-11.0	0.3
C[C@H]1CN([C@@H](C)CO)C(=O)c2cc(NS(=O)(=O)c3ccccc3)ccc2O[C@@H]1CN(C)C(=O)Nc1ccc2c(c1)OCO2	-7.3	-0.0293	-4.2	0.4
CC(=O)N(CN1C(=O)c2ccccc2C1=O)c1ccc2ccccc2c1	-24.9	-0.135	-16.5	0.9
Cc1noc(C)c1NC(=O)Nc1ccc2c(c1)C(=O)N([C@@H](C)CO)C[C@@H](C)[C@H](CN(C)Cc1ccccc1)O2	-7.8	0.0644	.	2.0
CN1C(=O)c2ccccc2NC(=O)[C@]12O[C@@H]2c1cccc(O)c1	5.4	-0.135	-14.9	2.0
O=c1cc(-c2ccc(O)c(O)c2)oc2cc(O)c(C3OC(CO)C(O)C(O)C3O)c(O)c12 (configuration not stated)	-11.3	0.268	-13.5	1.2
CS(=O)(=O)N(CC(=O)Nc1ccc(F)c(F)c1)c1ccc(Cl)c(C(F)(F)F)c1	13.8	.	.	-4.2
O=C(CSc1ncnc2sc3c(c12)CCCCC3)NCC1CCCO1 (configuration not stated)	-27.1	.	.	0.1

Structures from the list above that have two or more sulfur atoms, in the order listed:
SMILES	MITF inh	YB-1 expr inh	Shh pathway inh	PD-1 reverse act
COc1ccc(S(=O)(=O)Nc2ccc3c(c2)C(=O)N([C@H](C)CO)C[C@H](C)[C@@H](CN(C)S(=O)(=O)c2ccccc2)OCCCC[C@@H](C)O3)cc1	0.9	-0.453	63.4	.
Cc1ccc(S(=O)(=O)N(C)C[C@@H]2Oc3c(NS(=O)(=O)c4ccc(Cl)cc4)cccc3C(=O)N([C@H](C)CO)C[C@H]2C)cc1	-7.5	-0.477	-31.1	0.1
O=C(CSc1ncnc2sc3c(c12)CCCCC3)NCC1CCCO1 (configuration not stated)	-27.1	.	.	0.1

The listing picks up; the 2 compounds before the break are reprinted first.
SMILES	MITF inh	YB-1 expr inh	Shh pathway inh	PD-1 reverse act
CS(=O)(=O)N(CC(=O)Nc1ccc(F)c(F)c1)c1ccc(Cl)c(C(F)(F)F)c1	13.8	.	.	-4.2
O=C(CSc1ncnc2sc3c(c12)CCCCC3)NCC1CCCO1 (configuration not stated)	-27.1	.	.	0.1
Cc1noc(C)c1S(=O)(=O)Nc1ccc2c(c1)CC(=O)N([C@@H](C)CO)C[C@H](C)[C@H](CN(C)S(=O)(=O)c1ccc(Cl)cc1)O2	-10.2	0.105	9.8	-3.1
C[C@@H]1CN([C@H](C)CO)C(=O)c2cccc(NC(=O)CCCCCC(=O)Nc3ccccc3N)c2O[C@H]1CN(C)S(=O)(=O)c1ccc(Cl)cc1	12.2	-0.528	.	-0.5
C[C@H]1CN([C@@H](C)CO)C(=O)c2cccc(NC(=O)Nc3ccccc3)c2O[C@H]1CN(C)S(=O)(=O)c1cccs1	-12.0	-0.109	3.2	-1.3
C[C@@H]1CN([C@@H](C)CO)C(=O)c2cc(NC(=O)NC3CCCCC3)ccc2O[C@@H]1CN(C)S(=O)(=O)c1ccc(Cl)cc1	-2.4	0.262	20.1	-0.7
C[C@@H]1CN([C@H](C)CO)C(=O)c2cc(NS(=O)(=O)c3ccc(F)cc3)ccc2O[C@@H]1CN(C)Cc1ccc(Oc2ccccc2)cc1	3.9	0.0644	.	-1.2
COc1cc(C(C)=O)ccc1OCC(O)Cn1nc(C)c(C(C)=O)c1C (configuration not stated)	-22.9	.	.	2.1
COc1ccc(S(=O)(=O)N(C)C[C@H]2Oc3ccc(NS(=O)(=O)c4ccccc4)cc3C(=O)N([C@H](C)CO)C[C@H]2C)cc1	-5.8	0.175	.	1.2
NS(=O)(=O)c1ccc(NC(=S)NCc2ccccn2)cc1	-16.5	.	.	0.5
Cc1noc(C)c1S(=O)(=O)Nc1ccc2c(c1)C(=O)N([C@H](C)CO)C[C@H](C)[C@H](CN(C)C(=O)Nc1ccc3c(c1)OCO3)O2	-8.2	0.563	-2.5	-0.8
Cc1noc(C)c1NC(=O)Nc1ccc2c(c1)C(=O)N([C@H](C)CO)C[C@H](C)[C@@H](CN(C)C(=O)C1CCCCC1)OCCCC[C@@H](C)O2	-15.1	-0.044	-29.3	.
C[C@H]1CN([C@@H](C)CO)C(=O)Cc2cc(NC(=O)C3CC3)ccc2O[C@@H]1CN(C)S(=O)(=O)c1cn(C)cn1	1.4	-0.267	-2.6	.
CN(Cc1nc(-c2cccnc2)no1)S(=O)(=O)c1ccc(Br)cc1	-18.5	.	.	0.4
CC(Sc1ncnc2nc[nH]c12)c1ccccc1Cl (configuration not stated)	10.3	0.0234	-4.2	0.8
C[C@H](CO)N1C[C@H](C)[C@@H](CN(C)S(=O)(=O)c2ccc(F)cc2)Oc2ccc(NC(=O)Cc3ccccc3)cc2C1=O	18.3	-0.378	52.8	0.3
COC(=O)c1cc(C)sc1NC(=S)NCCc1ccccc1OC	3.9	.	.	1.3
C[C@@H]1CN([C@@H](C)CO)C(=O)c2cccc(NC(=O)CCCCCC(=O)Nc3ccccc3N)c2O[C@@H]1CN(C)C(=O)NC1CCCCC1	-8.5	0.201	.	0.8
C[C@@H]1CN([C@@H](C)CO)C(=O)c2cccc(NS(=O)(=O)c3ccc(Cl)cc3)c2O[C@H]1CN(C)S(=O)(=O)c1ccc(F)cc1	0.6	-0.244	-18.6	1.2
C[C@@H]1CN([C@H](C)CO)C(=O)c2cc(NS(C)(=O)=O)ccc2O[C@@H]1CN(C)S(C)(=O)=O	6.6	-0.274	-32.8	1.4
COc1ccc(NC(=O)N(C)C[C@@H]2Oc3ccc(NS(=O)(=O)c4ccc(C)cc4)cc3C(=O)N([C@H](C)CO)C[C@H]2C)cc1	-5.5	-0.138	.	-1.1
C[C@@H]1CN([C@@H](C)CO)C(=O)Cc2cc(NC(=O)Nc3ccc(C(F)(F)F)cc3)ccc2O[C@@H]1CN(C)C(=O)NC1CCCCC1	19.0	-0.265	24.1	-2.5
O=C(COc1ccccc1OC(=O)c1ccc(Cl)cc1)NCc1ccccc1Cl	-21.0	0.00618	-23.7	0.4
CC(C)NC(=O)N(C)C[C@H]1Oc2c(NS(C)(=O)=O)cccc2C(=O)N([C@H](C)CO)C[C@@H]1C	-8.7	-1.24	30.9	1.2
Cc1noc(C)c1NC(=O)Nc1cccc2c1O[C@H](CN(C)S(=O)(=O)c1cccs1)[C@H](C)CN([C@H](C)CO)C2=O	-8.8	0.352	-28.0	-0.6
C[C@@H]1CN([C@H](C)CO)C(=O)c2cccc(N(C)C)c2O[C@@H]1CN(C)S(=O)(=O)c1cn(C)cn1	-5.0	-0.402	1.6	-0.1
O=C(NCCCN=C1NS(=O)(=O)c2ccccc21)c1ccco1	0.0	.	.	-0.2
COC(=O)C1=CO[C@@H](O[C@@H]2O[C@H](CO)[C@@H](O)[C@H](O)[C@H]2O)[C@@H]2[C@@H]3CN4CCc5c([nH]c6ccccc56)[C@]4(C[C@H]12)O3	7.5	-0.219	-9.5	0.6
CS(=O)(=O)N(CC(N)=O)c1cc(Cl)c(Cl)cc1Cl	12.8	.	.	3.0
COc1ccccc1NC(=O)C(Cc1ccccc1)N1C(=O)C2C3C=CC(C3)C2C1=O (configuration not stated)	-17.0	.	.	-0.6
C[C@@H]1CN([C@H](C)CO)C(=O)c2cc(NC(=O)Nc3ccc4c(c3)OCO4)ccc2O[C@H]1CN(C)Cc1ccc(Cl)c(Cl)c1	6.2	0.376	4.3	1.2
Cc1noc(C)c1NC(=O)N(C)C[C@@H]1Oc2c(NC(=O)C3CCCCC3)cccc2C(=O)N([C@@H](C)CO)C[C@@H]1C	-2.6	0.644	-7.3	1.1
S=c1[nH]nc(-c2ccncc2)n1Cc1ccccc1	-8.8	-0.246	-4.8	0.0
Cc1noc(C)c1NC(=O)Nc1cccc2c1O[C@H](CN(C)CC1CC1)[C@@H](C)CN([C@H](C)CO)C2=O	3.4	0.0126	20.5	1.0
Cc1cc(Br)cc2c1N(C)C(=O)/C2=C1\SC(=Nc2ccc(F)cc2)NC1=O	22.6	1.69	4.8	0.8
C[C@@H]1CN([C@@H](C)CO)C(=O)c2cc(NS(C)(=O)=O)ccc2O[C@H]1CN(C)CC1CC1	-1.9	0.0522	-23.2	1.3
COc1ccc(OC)c(NC(=O)C(C)N2c3cccc4cccc(c34)S2(=O)=O)c1 (configuration not stated)	-13.9	.	.	-2.5
C[C@H]1CN([C@@H](C)CO)C(=O)Cc2cc(NC(=O)Cc3cn(C)c4ccccc34)ccc2O[C@H]1CN(C)S(C)(=O)=O	4.4	-0.0982	-3.8	1.0
C[C@@H]1CN([C@@H](C)CO)C(=O)Cc2cc(NS(=O)(=O)c3cn(C)cn3)ccc2O[C@@H]1CN(C)C(=O)Nc1cccc2ccccc12	-8.0	-0.045	-8.8	3.6
CCN(CC(=O)Nc1ccc(C(N)=O)cc1)S(=O)(=O)c1ccc(F)cc1	-35.7	.	.	2.6
C[C@H]1CN([C@@H](C)CO)C(=O)c2cccc(NC(=O)c3ccncc3)c2O[C@@H]1CN(C)S(C)(=O)=O	6.5	0.188	-16.3	0.7
COc1ccc(CN(C)C[C@@H]2OCCCC[C@@H](C)Oc3ccc(NC(=O)NC(C)C)cc3C(=O)N([C@H](C)CO)C[C@@H]2C)cc1	5.2	0.0491	-18.8	0.9
C[C@H](CO)N1C[C@H](C)[C@H](CN(C)CC2CC2)Oc2ccc(NS(=O)(=O)c3ccc(F)cc3)cc2CC1=O	7.0	0.033	.	1.1
C[C@@H]1CN([C@H](C)CO)C(=O)c2cc(NC(=O)c3ccncc3)ccc2O[C@@H]1CN(C)C(=O)Nc1cccc2ccccc12	-11.7	-0.0356	-29.5	-1.2
Cc1noc(C)c1S(=O)(=O)N(C)C[C@H]1Oc2c(NC(=O)C3CC3)cccc2C(=O)N([C@@H](C)CO)C[C@H]1C	-15.9	0.116	25.1	2.2
C[C@H]1CN([C@@H](C)CO)C(=O)Cc2cc(NC(=O)CCCCCC(=O)Nc3ccccc3N)ccc2O[C@H]1CN(C)CC1CCCCC1	20.6	-0.0419	.	-0.6
C[C@H](CO)N1C[C@H](C)[C@H](CN(C)S(=O)(=O)c2ccccc2)Oc2ccc(NS(=O)(=O)c3ccc(Cl)cc3)cc2C1=O	12.0	0.167	.	-5.5
COc1cc(NC(=O)COc2cc(C)c(Cl)c(C)c2)c(C(=O)O)cc1OC	-13.8	.	.	0.6
C[C@@H]1CN([C@H](C)CO)C(=O)Cc2cc(NC(=O)C3CCCCC3)ccc2O[C@@H]1CN(C)C(=O)Nc1ccc(F)cc1	-4.3	0.286	-7.4	-0.8
CC1(C)CC[C@]2(C(=O)O)CC[C@]3(C)C(=CCC4[C@@]5(C)CC[C@H](O[C@@H]6OC[C@H](O)[C@H](O)[C@H]6O)[C@@](C)(CO)C5CC[C@]43C)C2C1 (some centres not stated)	15.7	-0.764	79.3*	-8.3
COc1ccccc1C(=O)N(Cc1nc(-c2ccc(Cl)cc2)no1)C(C)C	11.2	.	.	-1.2

The list is partial, so the mix of outcomes need not match the whole.
